RecA intein inh – Mtb RecA intein splicing inhibition | cell-free RecA intein splicing, fluorescence | inhibition, %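 (about 9 µM by stock and volumes)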 | 290,000 tested, 0.75% active | AID 2221; in the data active = inhibition above about 30%; inconclusive = no clear call, values can overlap the other calls;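 note: 0% = vehicle wells and 100% = reference inhibitor control wells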
Target sequence (P9WHJ3 whole entry, looked up): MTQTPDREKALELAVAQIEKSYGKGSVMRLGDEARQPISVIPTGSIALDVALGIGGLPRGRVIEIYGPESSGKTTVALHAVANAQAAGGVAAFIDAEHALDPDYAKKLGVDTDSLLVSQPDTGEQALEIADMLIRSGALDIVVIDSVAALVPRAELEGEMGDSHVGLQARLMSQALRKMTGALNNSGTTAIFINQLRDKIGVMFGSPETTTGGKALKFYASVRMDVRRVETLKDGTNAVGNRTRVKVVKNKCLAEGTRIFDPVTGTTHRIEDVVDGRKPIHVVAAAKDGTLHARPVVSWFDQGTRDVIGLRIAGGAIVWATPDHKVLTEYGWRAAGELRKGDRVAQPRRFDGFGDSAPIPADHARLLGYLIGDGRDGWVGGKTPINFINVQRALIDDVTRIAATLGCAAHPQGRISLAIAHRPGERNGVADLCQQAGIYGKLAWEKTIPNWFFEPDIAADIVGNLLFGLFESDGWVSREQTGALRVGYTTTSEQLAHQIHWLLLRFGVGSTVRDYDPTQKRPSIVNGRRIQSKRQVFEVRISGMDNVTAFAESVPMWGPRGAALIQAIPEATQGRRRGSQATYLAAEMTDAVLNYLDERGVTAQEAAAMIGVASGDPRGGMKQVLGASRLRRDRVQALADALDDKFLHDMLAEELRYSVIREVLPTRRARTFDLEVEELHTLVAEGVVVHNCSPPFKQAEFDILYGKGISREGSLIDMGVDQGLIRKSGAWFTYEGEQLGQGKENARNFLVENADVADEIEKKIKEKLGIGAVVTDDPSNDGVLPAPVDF
Mtb growth – M. tuberculosis H37Rv growth inhibitors, H37Rv strain (AID 1626); M. tuberculosis H37Rv growth inhibition; higher % means a stronger effect; one-dose inhibition, % at 10 µM; IC50 in µM for titrated hits; 220,000 tested, 0.95% active;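 active = confirmed in a dose series; inconclusive = inhibition above 80% but not taken into the dose series; inactive = below 80% or under 30% at every dose of the series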;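 note: bacteria incubated seven days before Alamar blue readout; 0% = bacteria only wells and 100% = bacteria with antibiotic wells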
Arbovirus anti – arbovirus infection inhibition; AID 1251; inhibition, % at 10 µM; arbovirus infection cell-based antiviral screen; 200,000 tested, 0.37% active;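 active = inhibition from about 30%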;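 note: bluetongue infection of BSR cells; cell survival read as ATP light after 72 h; 0% = infected wells without compound and 100% = uninfected wells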
Mtb bLac sens – beta-lactam sensitization of Mtb H37Rv. M. tuberculosis H37Rv growth with meropenem, percent inhibition; hits of this screen are not shown here. 330,000 tested, 0.27% active. inhibition, % at 25 µM;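 active = about 74% or more and at least 40 points above the plate without the antibiotic, then above 30% in a dose series; inconclusive = first-round hits that could not be retested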;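 note: growth measured after seven days incubation then overnight dye step; 0% = bacteria only wells and 100% = bacteria with antibiotic; twin plates without the antibiotic show which effects depend on it; some results filed as inactive read as strong as hits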
YopH PTP inh – inhibitors of Yersinia enterocolitica YopH tyrosine phosphatase | fluorescence Ex485/Em525 | inhibition, %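 (about 10 µM by stock and volumes)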 | 140,000 tested, 0.16% active | AID 898;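 active = inhibition of 50% or more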;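 note: controls were vehicle for no effect and minimum signal wells for full effect; inactives centre near -20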
Arbovirus anti repeat – recorded beside Arbovirus anti, whose call it bears; inhibition, %; measured here: 10K subset replicate screen; many hits read low in the repeat;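 first of two repeat runs on a subset; 0% = infected and 100% = uninfected wells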
Numbers without * were called inactive; ? = inconclusive; · = no result given. A portion of the library, so the mix of outcomes need not match the whole.

Start of the data: the first 3 entries, to show the layout:
SMILES	RecA intein inh	Mtb growth	Arbovirus anti	Mtb bLac sens	YopH PTP inh	others
CCCn1c(=S)[nH]c2cc(C(=O)N3CCN(C(=O)OCC)CC3)ccc2c1=O	0.3	·	·	-2	·
Cn1c(/C(C#N)=C/c2ccc(-c3ccc(S(N)(=O)=O)cc3)o2)nc2ccccc21	·	5%	2	-1	-24
O=c1c(Cl)c(NCc2ccco2)cnn1C12CC3CC(CC(C3)C1)C2	-5.0	5%	7	-4	·

This part in full, repeating the preview:
SMILES	RecA intein inh	Mtb growth	Arbovirus anti	Mtb bLac sens	YopH PTP inh	others
CCCn1c(=S)[nH]c2cc(C(=O)N3CCN(C(=O)OCC)CC3)ccc2c1=O	0.3	·	·	-2	·
Cn1c(/C(C#N)=C/c2ccc(-c3ccc(S(N)(=O)=O)cc3)o2)nc2ccccc21	·	5%	2	-1	-24
O=c1c(Cl)c(NCc2ccco2)cnn1C12CC3CC(CC(C3)C1)C2	-5.0	5%	7	-4	·
CCn1cc(C(=O)O)c(=O)c2cc(F)c(N3CCN(S(=O)(=O)c4ccc(NC(=O)OC)cc4)CC3)cc21	0.9	34%	-4	47	-25
CC(C)[C@H](NC(=O)NCc1ccco1)C(=O)O	1.2	-1%	5	-8	-21
Cc1ccc(C(=O)Cn2nc(C(=O)O)c3ccccc3c2=O)cc1C	-0.9	8%	·	-2	·
Cn1cc(Cl)c(C(=O)N(Cc2ccccc2)c2ccccn2)n1	-1.0	2%	4	-3	·	Arbovirus anti repeat=8
Cc1cccnc1NC(=O)Cn1c(=O)oc2ccccc21	-0.3	·	·	-8	·
O=C(NN(C(=O)c1ccccc1)c1ccccc1)c1ccccc1	-2.0	0%	·	-7	·
C#CCOCCOCCOCCNc1nc(N2CCOCC2)nc(N2CCN(C(=O)[C@H](CCCCN)n3cc([C@@H](N)CO)nn3)CC2)n1	1.9	-7%	5	5	·
CC(=O)Nc1ccc(-c2ccc3nnc(C)n3n2)cc1	2.6	-4%	3	-1	·
Cc1ccccc1-c1nnc(SCC(=O)N(CC(C)C)c2c(N)n(CC(C)C)c(=O)[nH]c2=O)n1C	0.4	-8%	·	-4	·
O=C1C2C3C=CC(C3)C2C(=O)N1c1ccc(-c2nc3ccccc3c(=O)o2)cc1 (stereo not given)	0.8	9.3µM*	7	100	·
O=C(CN1CCOCC1)Nc1ccc(S(=O)(=O)N2CCCCCC2)cc1	6.5	-2%	7	-2	-52
O=C(CSc1nccn1Cc1ccco1)Nc1ccccc1F	-0.3	·	·	5	·
Cc1cc(N/N=C/c2ccncc2)nc2ccccc12	-1.2	7%	-1	·	·
C=CCn1c(C)cc(C(=O)COc2ccc(C)nc2[N+](=O)[O-])c1C	-1.2	6%	-7	-6	-12
Cc1ccc(Cn2c(N3CCNCC3)nc3c2c(=O)[nH]c(=O)n3C)cc1	0.3	·	·	-1	·
Cc1ccc(S(=O)(=O)/N=C2/NC(=O)/C(=C/c3ccc(Br)o3)S2)cc1	-5.0	-6%	8	-8	-20
Cc1ccc(C(=O)Nc2c(C#N)c(C)c(C)n2Cc2ccccc2)cc1	-1.3	-10%	6	-4	10
CCOC(=O)c1c(NC(=S)Nc2ccc(OCC)cc2)sc2c1CCN(C)C2	-14	?	·	95	·
Cc1ccc(-n2c(SCC(=O)NCCC3=CCCCC3)nc3n[nH]c(C)c3c2=N)cc1Cl	0.0	·	·	-1	·
COC(=O)c1cc(S(=O)(=O)Nc2cc(S(=O)(=O)N(C)C)ccc2C)oc1C	4.8	-1%	·	10	·
CC1(C)Cc2c(sc3ncnc(NNC(=S)NCc4ccccc4)c23)CO1	-2.2	2%	-17	4	-6
O=C(NC1CCCCC1)N1CCC(c2nc3ccccc3[nH]2)CC1	2.3	-1%	4	-6	-31
O=C(O)CCCC(=O)NNc1ncnc2ccccc12	-0.2	-4%	4	-1	-22
COc1cc(CCC(=O)OCC(=O)Nc2ccccc2C#N)cc(OC)c1OC	-2.4	1%	2	-4	·
C=CCNC(=S)NNC(=O)c1cccc2ccccc12	3.7	0%	7	-13	-32
Cc1nc(SCc2cccc(C(=O)O)c2)nc2c1CCCC2	-2.6	-5%	9	0	·
CC1CCCC(CC(=O)O)(CC(=O)O)C1 (stereo not given)	-1.1	-10%	·	1	·
COc1ccc(-n2ccc3ccccc32)cc1	3.6	·	·	-7	·
Cc1cccc(C)c1N1C(=O)c2ccccc2C1=O	-1.0	-3%	4	-10	-51	Arbovirus anti repeat=1
O=C(O)c1ccc(N=Nc2c(O)[nH]c3ccc(Br)cc23)cc1	-0.7	·	·	8	·
Cc1ccc(S(=O)(=O)N(CC(=O)N2CCC(C)CC2)c2ccccc2)cc1	-0.1	-6%	-2	-1	·
Nc1nc(NCc2ccco2)nc(N2CCN(Cc3ccccc3)CC2)c1[N+](=O)[O-]	4.4	-12%	·	4	·
CCOC(=O)c1sc(N2C(=O)C(O)=C(C(=O)c3ccco3)C2c2ccc(C)o2)nc1C (stereo not given)	3.8	·	·	5	·
CCn1c(SCC(=O)Nc2cccc(NC(=O)c3cccs3)c2)nnc1-c1ccncc1	-0.1	3%	-1	8	-26
O=C(NCC1CCCO1)c1ccc(NC(=O)c2cc(F)c(F)cc2Cl)cc1 (stereo not given)	-2.1	·	·	1	·
CCCCNC(=O)c1c[nH]c2ccc(S(=O)(=O)N3CCOCC3)cc2c1=O	-4.7	-4%	1	-2	·
O=C(Nc1nc2c(Cl)ccc(Cl)c2s1)c1ccco1	4.7	2%	-16	2	-20	Arbovirus anti repeat=-22
CC(=O)c1ccc(NC(=O)CN(c2c(C)cccc2C)S(C)(=O)=O)cc1	-1.5	·	·	-2	·
CCOCCOc1cccc(C(=O)NC(c2ccccc2)C(C)C)c1 (stereo not given)	1.2	3%	-2	0	·
CCN(C(=O)Cn1c([N+](=O)[O-])cnc1C)c1ccccc1	-1.4	·	·	3	·
COc1ccc2c(c1)SCC(=O)N2C	-0.9	0%	-4	1	9
COc1ccccc1CC(=O)Nc1cc(OC)c(NC(=O)c2ccccc2)cc1OC	-0.5	·	·	17	·

Four entries already listed, arranged by molar mass, ascending:
SMILES	RecA intein inh	Mtb growth	Arbovirus anti	Mtb bLac sens	YopH PTP inh	others
COc1ccc(-n2ccc3ccccc32)cc1	3.6	·	·	-7	·
O=C(Nc1nc2c(Cl)ccc(Cl)c2s1)c1ccco1	4.7	2%	-16	2	-20	Arbovirus anti repeat=-22
O=C(O)c1ccc(N=Nc2c(O)[nH]c3ccc(Br)cc23)cc1	-0.7	·	·	8	·
O=C(NCC1CCCO1)c1ccc(NC(=O)c2cc(F)c(F)cc2Cl)cc1 (stereo not given)	-2.1	·	·	1	·

The list continues.
SMILES	RecA intein inh	Mtb growth	Arbovirus anti	Mtb bLac sens	YopH PTP inh	others
CC1CCCCC1NC(=O)c1ccc(CNc2c(N3CCCC3)c(=O)c2=O)cc1 (stereo not given)	-1.9	1%	-1	-2	16	Arbovirus anti repeat=6
CC1(OC(=O)C2CCCC2)C(=O)C=C2C=C3CCCN3C=C2C1=O (stereo not given)	0.5	-11%	·	-2	·
CC(=O)Nc1cccc(OCc2c(F)cccc2Cl)c1	1.1	0%	-4	-7	·
O=C(CSc1nc2cc(Cl)ccc2s1)NC(=O)NCc1ccco1	0.7	0%	-8	11	44
COC(=O)[C@]1(Cc2ccccc2)N[C@H](c2ccc(-c3ccccc3)cc2)[C@@H]2C(=O)N(C)C(=O)[C@@H]21	-4.5	·	·	7	·
CSCCOC(=O)C1=C(C)NC(=O)NC1c1ccc2c(c1)OCO2 (stereo not given)	1.3	·	·	0	·
CN(C)c1ccc(/C=N/NC(=O)C2CC2c2ccccc2)cc1 (stereo not given)	-3.0	-8%	-27	10	·
CCOc1ccccc1N1CCN(S(=O)(=O)c2cccs2)CC1	5.2	10%	0	59	-10
CCOC(=O)CN(C(=O)CN1CCOCC1)c1ccc(Br)cc1	-0.7	-3%	1	0	8
C=CCNC(=O)Cn1c(=O)c2c(ncn2CCC(C)C)n(Cc2ccccc2)c1=O	0.2	·	·	4	·
CC(C)c1c(C#N)c(N)nc(SCC(=O)c2cc3ccccc3oc2=O)c1C#N	-1.1	38%	23	94	-24
COc1ccccc1NC(=O)c1ccc(NC(=O)CSc2nnnn2C)cc1	-0.9	73%	9	98	-30
COCCn1c(C)cc(C(=O)CSc2cc(C)c3ccccc3n2)c1C	5.2	3%	31*	0	-2
C=CCn1c(Br)nc2c1c(=O)n(C)c(=O)n2C	0.3	-10%	-4	1	1
O=C1c2cccc3c(N4CCCCC4)ccc(c23)C(=O)N1c1cccc(O)c1	-3.9	8%	9	1	·
CCOc1ccc(NC(=O)Cc2c(O)c3ccccc3[nH]c2=O)cc1	-3.5	71%	4	88	-35
Cc1ccc(S(=O)(=O)Nc2ccc(-c3ccc4nncn4n3)cc2)cc1	-3.8	·	·	12	·
CSc1ccc(/C=C/C(=O)OCC(=O)N(C)CCC#N)cc1	1.3	0%	5	12	·
CN1CCN(NC(=O)NC2CCCCC2)CC1	1.9	·	·	-9	·
Nn1c(SCC(=O)NC2CCCc3ccccc32)nnc1-c1cccs1 (stereo not given)	1.8	-5%	8	-13	-10
CC1Cc2ccccc2N1C(=O)COC(=O)c1ccc(S(=O)(=O)N(C)C)cc1 (stereo not given)	1.1	-1%	11	2	-47
O=C(NCCOC(=O)c1ccc(F)cc1)c1ccc(F)cc1	-1.0	·	·	2	·
CCOc1ccc(-n2c(=O)[nH]cc(C(=O)Nc3ccc(OC)c(OC)c3)c2=O)cc1	-0.9	2%	9	1	·
CCOC(=O)N1CCN(S(=O)(=O)c2ccc(C(=O)Nc3ccc4c(c3)C(=O)NC4=O)cc2)CC1	0.0	3%	9	7	-43
Clc1ccc(-c2n[nH]c3c2CCC3)c(Cl)c1	6.2	-6%	4	68	-31
O=C1CC(N2CCN(C/C=C/c3ccccc3)CC2)C(=O)N1Cc1ccc(N2CCCC2=O)cc1 (stereo not given)	0.0	-4%	-1	-5	-48
COC(=O)c1ccc(CN(c2ccc(C(=O)O)c(O)c2)S(=O)(=O)c2ccc(Cl)c([N+](=O)[O-])c2)cc1	13	·	·	0	·
COc1ccc(CCNC(=O)C2CC(=O)N(c3ccccc3)C2)cc1OC (stereo not given)	-1.9	-7%	9	-5	-3
O=C(Nc1nnc(C2CC2)s1)c1cccc(S(=O)(=O)N2CC(c3ccccc3)CC2=O)c1 (stereo not given)	2.8	-2%	12	-1	-45
COC(=O)c1cn[nH]c1NC(=S)Nc1ccc(C)cc1Cl	-0.9	6%	15	-4	9
CCNC(=S)NNC(=O)c1cc(-c2cccc(OCC)c2)nc2ccccc12	3.9	17%	-20	2	-24
CCn1c(=N)n(Cc2ccccc2F)c2ccccc21	3.3	-2%	0	-7	-26
Cc1cc(C)c(S(C)(=O)=O)c(Oc2cccc(Cl)c2)n1	-1.4	1%	8	-6	-28
Cc1ccc(NC(=O)Cn2c(=S)[nH]c3ccccc32)cc1	1.9	4%	-3	1	·
COCc1nc(-c2cc(OC)c(OC)c(OC)c2)no1	-3.2	-5%	-1	-2	-17
CCCOc1ccc(Cn2cnc3ccccc32)cc1	·	5%	20	14	-2
Cc1snc(SCC(=O)N/N=C(\N)COc2ccc(F)cc2)c1C#N	-0.8	8%	1	-14	-18
Cc1c(CCO)c(=O)oc2n[nH]c(-c3ccccc3)c12	3.1	2%	15	-5	·
Cn1ncc(Oc2ccc([N+](=O)[O-])cc2)c(Cl)c1=O	1.6	0%	·	-9	·
COc1ccc(N2C(=O)CC(Sc3ccccc3C(=O)O)C2=O)c([N+](=O)[O-])c1 (stereo not given)	3.9	-4%	-2	0	·
COc1cccc(NC(=O)CN(C)C(=O)c2ccccc2OCc2c(C)noc2C)c1	10	·	·	-6	·
Cn1c(=O)c2sccc2n2c(CCCC(=O)NC3CCN(Cc4ccccc4)CC3)nnc12	-4.9	·	·	-1	·
CCOC(=O)c1c(C)oc(NC(=O)COc2ccc(Cl)cc2C)c1C#N	2.0	-1%	1	-1	-24
O=C(O)[C@H](Cc1ccccc1)N1C(=O)c2c(Cl)c(Cl)c(Cl)c(Cl)c2C1=O	25	·	·	-11	·
CCOC(=O)c1ccc(-n2ccnc2)c(NC(=O)c2ccc(C(C)(C)C)cc2)c1	2.7	8%	-9	13	-22
CCOc1ccc(N2C(=O)CC(N3CC(C)OC(C)C3)C2=O)cc1 (stereo not given)	-0.4	-1%	7	7	-19	Arbovirus anti repeat=4
COc1cc(N2CN=c3s/c(=C\c4ccccn4)c(=O)n3C2)cc(OC)c1OC	-2.5	-5%	8	4	-38
CN(C)c1ccc(/C=C/[N+](=O)[O-])cc1	-2.8	0%	-2	26	-3
O=C(Nc1cccc(S(=O)(=O)Nc2ccc(Cl)cc2)c1)c1cc2c(s1)CCCC2	-3.6	23%	-38	21	-17
COc1ccc(/C=N/N2CCN(Cc3ccc(C)cc3)CC2)cc1Br	-4.3	·	·	36	·
